# Screening results from PubChem.
# HSV replic up: HSV replication enhancement; HSV replication augmentation in cells, fold increase; maximum fold increase; 220,000 tested, 0.005% active; AID 1956;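 active = peak rise of 1.5-fold or more in the series; inconclusive = self-fluorescent or not available for retest; tested in PC3 cells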;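 note: first round at 10 µM; read as green reporter fluorescence; hits show the peak of a series up to 25 µM; 1 = signal of infected wells without compound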
# INS promoter inh: TRM-6 insulin promoter activity inhibition. TRM-6 cells (human fetal islet line), insulin promoter-eGFP reporter, imaging; reporter expression induced with tamoxifen. inhibition, % at 2 µM. AID 1273. 130,000 tested, 0.9% active;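 active = inhibition above the mean plus 3 SD, with well images judged a real hit on visual review, cut at about 60% in these data, passing the limit was not always enough; inconclusive = inhibition over the cutoff but images rejected on review; inactive = inhibition not above the cutoff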
# RGS16-Gao: RGS16-Galphao interaction regulator (human); bead-based flow cytometry RGS16-Galphao binding, fluorescence; actives lie on both sides; binding response (% of control), % at 10 µM; 220,000 tested, 0.38% active;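 active = below 25% or above 175%, edge rows of some plates excepted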;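 note: Galphao activated by GDP with aluminum fluoride before binding; 100% = wells without compound and 0% = beads without RGS; some results beyond the cut were filed as inactive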
# Target sequence (O15492 whole entry, looked up): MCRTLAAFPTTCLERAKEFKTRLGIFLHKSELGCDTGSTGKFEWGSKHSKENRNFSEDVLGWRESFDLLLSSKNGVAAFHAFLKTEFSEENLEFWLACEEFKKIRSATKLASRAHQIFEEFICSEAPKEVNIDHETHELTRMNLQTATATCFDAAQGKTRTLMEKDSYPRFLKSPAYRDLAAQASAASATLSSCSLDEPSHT
# Target sequence (P09471 whole entry, looked up): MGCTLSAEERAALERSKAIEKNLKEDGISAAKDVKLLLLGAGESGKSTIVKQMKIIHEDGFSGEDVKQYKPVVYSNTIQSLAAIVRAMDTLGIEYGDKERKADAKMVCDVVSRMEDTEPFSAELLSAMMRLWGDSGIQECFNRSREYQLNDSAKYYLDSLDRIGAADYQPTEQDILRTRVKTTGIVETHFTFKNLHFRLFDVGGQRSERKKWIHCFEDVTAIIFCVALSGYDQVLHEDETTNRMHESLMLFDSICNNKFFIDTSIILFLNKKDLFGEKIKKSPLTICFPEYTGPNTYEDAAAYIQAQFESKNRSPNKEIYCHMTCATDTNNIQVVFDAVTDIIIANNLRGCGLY
# GALR2 ag: GALR2 (human) receptor agonism | activation, %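 (tested at 5 µM)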 | 140,000 tested, 0.48% active | O43603 | GALR2-expressing cells, agonist activation read-out | AID 803;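 active = above mean plus 3 SD of all compounds, about 5% in these data, not always enough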;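 note: 0% = vehicle buffer wells and 100% = reference agonist at full effect; tested in CHO reporter cells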
# Target sequence (O43603 whole entry, looked up): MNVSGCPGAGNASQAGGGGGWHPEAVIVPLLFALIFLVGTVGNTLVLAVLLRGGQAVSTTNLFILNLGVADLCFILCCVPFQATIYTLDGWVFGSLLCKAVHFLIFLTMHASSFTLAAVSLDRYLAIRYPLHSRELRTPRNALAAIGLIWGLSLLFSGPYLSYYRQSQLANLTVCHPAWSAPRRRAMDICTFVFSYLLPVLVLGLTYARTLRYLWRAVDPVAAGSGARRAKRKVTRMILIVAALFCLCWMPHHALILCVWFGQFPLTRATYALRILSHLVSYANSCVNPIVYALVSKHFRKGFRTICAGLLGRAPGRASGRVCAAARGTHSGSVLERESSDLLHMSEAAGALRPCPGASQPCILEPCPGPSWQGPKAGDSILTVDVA
# PKD1 inh: inhibitors of human PKD1 kinase. AID 797. Q15139. inhibition, %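 (about 10 µM by stock and volumes)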. PKD1 kinase fluorescence polarization assay. 200,000 tested, 0.056% active;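 active = inhibition of 50% or more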;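 note: controls were vehicle for no effect and a reference inhibitor for full effect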
# INS promoter inh cell count: recorded beside INS promoter inh, whose call it bears; normalized cell count, %; measured here: cell count, toxicity; reference of the scale not given here;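 cells exposed to compound for 48 h; stained nuclei by imaging scaled within each plate; lower means fewer cells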
# HSV replic up primary fold: also measured in HSV replic up; calls as there; fold increase; compound at 10 µM; measured here: primary screen fold increase 10 uM; tested in PC3 cells;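 GFP signal in the first replicate; 1 = infected wells without compound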
# Active calls of the source: *; i = inactive; ? = inconclusive; / = no result given.
# Results follow in this order: HSV replic up	HSV replic up primary fold	INS promoter inh	INS promoter inh cell count	RGS16-Gao	GALR2 ag	PKD1 inh
- COc1ccc(NC(=O)COC(=O)C23CCC(=O)N2c2ccccc2S3)cc1 (centres undefined)
 : i	0.86	51	70	97	-2.2	-5
- COCCCN1CC23C=CC(O2)C(C(=O)OC)C3C1=O (centres undefined)
 : i	1	0	68	/	-2.4	-4
- CCN(CC)c1ccc(/C=N/N2C(=O)c3ccccc3C2=O)cc1
 : i	1.1	-10	117	95	-1.1	-16
- Cc1ccc(C(=O)NCC(=O)NCCc2ccc(S(N)(=O)=O)cc2)s1
 : i	1	/	/	100	/	/
- CCN(C(=O)CSc1nnc(-c2ccccc2Br)o1)C1CCS(=O)(=O)C1 (centres undefined)
 : i	1	0	59	102	/	-9
- CN(C)CCSc1nc(O)c(-c2ccccc2)c(=O)n1-c1ccccc1
 : i	1	/	/	100	/	/
- O=c1sc2ccccc2c(=O)n1Cc1ccccc1F
 : i	0.88	/	/	109	/	-4
- Cn1c(SCc2nc3ccccc3c(=O)[nH]2)nnc1-c1ccco1
 : i	0.87	-13	86	86	-2.0	-7
- CCCOc1ccc(N2C(=O)CC(N(O)c3ccccc3)C2=O)cc1 (centres undefined)
 : i	0.94	-20	57	101	-4.3	9
- CCN(CC)c1ccc(/C=C2/C(=O)N(c3ccc([N+](=O)[O-])cc3)N=C2N2CCOCC2)cc1
 : /	/	-37	77	103	-0.5	-3
- FC(F)(F)c1cccc(Cc2noc(CN3CCCC(OCc4ccccn4)C3)n2)c1 (centres undefined)
 : i	1.1	/	/	107	/	-10
- CCOc1ccc(NC(=O)COn2nnc3ccc(S(=O)(=O)N4CCOCC4)cc32)cc1
 : i	0.97	-55	66	113	/	-5
- C#CCOCCOCCOCCNc1nc(N2CCN(C(=O)C(Cc3cc4ccccc4[nH]3)n3cc(C(N)Cc4ccc(O)cc4)nn3)CC2)nc(N2CCN(C(=O)C(Cc3cc4ccccc4[nH]3)n3cc(C(N)Cc4ccc(O)cc4)nn3)CC2)n1 (centres undefined)
 : /	/	/	/	102	/	-1
- CCCn1c(=O)[nH]c2ccccc21
 : i	1	-16	109	92	-3.9	-6
- Cc1c(O)cc2c(c1O)C(=O)CC(c1ccc(O)cc1)O2 (centres undefined)
 : i	0.94	/	/	93	/	0
- Cc1cc2c(=O)oc(-c3ccc(Br)cc3)nc2s1
 : i	1.1	/	/	101	/	/
- C=CCNC(=S)N1CCN(c2ncc3c(=O)c(C(=O)O)cn(CC)c3n2)CC1
 : i	1	/	/	80	-1.0	-5
- CC(C)(C)OC(=O)CC[C@@H](C(=O)N1CCN(C(=O)OC(C)(C)C)CC1)n1cc(C(Cc2ccc(O)cc2)NC(=O)OC(C)(C)C)nn1 (some centres undefined)
 : /	/	/	/	103	/	3
- CCCn1c(SCC(=O)NCc2ccc(C)cc2)n[nH]c1=O
 : i	0.96	29	146	112	/	-4
- CCCn1cnc2cc(NCc3cccc(OC)c3)ccc21
 : i	0.93	30	137	104	-0.3	-5

# The list continues:
# Results follow in this order: HSV replic up	HSV replic up primary fold	INS promoter inh	INS promoter inh cell count	RGS16-Gao	GALR2 ag	PKD1 inh
- COc1cccc(-n2nnc3c(=O)n(Cc4ccc(F)cc4)cnc32)c1
 : i	0.87	57	85	105	0.1	0
- Cc1nn(Cc2ccccc2Cl)c(C)c1NC(=O)CCCn1nc(C)c([N+](=O)[O-])c1C
 : i	0.92	/	/	101	-0.2	11
- Cc1ccccc1NC(=O)Cn1nc(C(F)(F)F)cc1C1CC1
 : i	0.9	21	53	91	-0.6	-7
- COCC(C)n1c(C)cc(C(=O)COc2ccc(S(=O)(=O)N3CCOCC3)cc2Cl)c1C (centres undefined)
 : i	1	6	104	102	0.3	5
- O=C(NCCc1c[nH]c2ccccc12)C(=O)NCC(c1ccco1)N1CCN(c2ccccc2F)CC1 (centres undefined)
 : i	0.96	24	115	56	-0.3	5
- CCC(C)(C)n1nnnc1C(c1ccc(OC)c(OC)c1)N1CCN(c2ccc(F)cc2)CC1 (centres undefined)
 : i	0.83	-38	77	112	-1.4	12
- COc1ccc(Cc2[nH]n3c(=O)cc(C)nc3c2-c2ccccc2)cc1
 : i	0.87	-12	73	97	/	-1
- Cc1ccc(C)c(/C=N/NC(=S)NC(C)C)c1
 : i	0.8	-8	94	116	-0.8	-9
- COc1ccc(OC)c(-c2c[n+](=O)c3c(n2[O-])CCCC3)c1
 : i	0.92	/	/	106	-2.6	-15
- COC(=O)CCC(=O)NNC(=O)c1cccc(Br)c1
 : i	1	-8	87	112	-0.6	13
- O=C(CSc1nc2c(sc3ccccc32)c(=O)n1CCO)NCc1ccco1
 : i	0.88	25	45	101	0.4	-8
- Cc1ccc2ncccc2c1NC(=S)NC(=O)c1ccccc1
 : i	1.1	/	/	98	/	-5
- COc1cccc(C(=O)NNC(=O)C2CC(C)=C(C)CC2C(=O)O)c1 (centres undefined)
 : i	0.87	-32	113	108	-2.1	9
- COC(=O)C1(CCSC)NC(c2ccccc2OC)C2C(=O)N(C)C(=O)C21 (centres undefined)
 : i	0.98	/	/	99	-0.4	-5
- CCOc1cccc2sc(N(CCCN(C)C)C(=O)c3ccc(S(=O)(=O)N(C)c4ccccc4)cc3)nc12
 : i	0.83	7	113	94	/	-4
- C/C(=N\NC(=O)CNC(=O)C1COc2ccccc2O1)c1ccc(Cl)cc1 (centres undefined)
 : i	1.1	/	/	112	/	/
- COc1ccc(-n2cnnc2SCC(=O)Nc2cccnc2Cl)cc1
 : i	0.96	/	/	90	/	-4
- CCOC(=O)CNC(=O)c1ccc2c(c1)OCCO2
 : i	0.93	/	/	89	-0.6	4
- CN(CCC#N)C(=O)COC(=O)c1ccc(Cl)c(S(=O)(=O)N(C)c2ccccc2)c1
 : i	1	/	/	109	/	10
- CCCOC(=O)CCn1c(=S)oc2ccccc21
 : i	1.1	/	/	102	-2.2	4

# By substructure, the entries above with a nitro group on carbon
# Results follow in this order: HSV replic up	HSV replic up primary fold	INS promoter inh	INS promoter inh cell count	RGS16-Gao	GALR2 ag	PKD1 inh
- CCN(CC)c1ccc(/C=C2/C(=O)N(c3ccc([N+](=O)[O-])cc3)N=C2N2CCOCC2)cc1
 : /	/	-37	77	103	-0.5	-3
- Cc1nn(Cc2ccccc2Cl)c(C)c1NC(=O)CCCn1nc(C)c([N+](=O)[O-])c1C
 : i	0.92	/	/	101	-0.2	11

# Remaining list, next part:
# Results follow in this order: HSV replic up	HSV replic up primary fold	INS promoter inh	INS promoter inh cell count	RGS16-Gao	GALR2 ag	PKD1 inh
- Cc1ccc(-c2n[nH]c(=S)n2/N=C/c2sccc2C)cc1
 : i	1.1	/	/	99	/	/
- CCCCCCCCCS(=O)(=O)N/N=C/c1cccc([N+](=O)[O-])c1
 : i	1.1	-4	128	106	-2.6	-10
- COc1cc(Br)cc2cc(C(=O)OC3CCN(C)CC3)c(=O)oc12
 : i	0.87	48	95	/	-0.6	-9
- Cc1cccc(-n2ncc3c(N4CC(C)CC(C)C4)ncnc32)c1 (centres undefined)
 : i	0.77	/	/	63	-1.8	-3
- Cc1c2c(n3c(nc4ccccc43)c1C#N)N(CCN1CCOCC1)CC2
 : i	0.92	-30	135	113	/	-1
- Cc1nc2c(-c3ccc(Cl)cc3)c(C)[nH]n2c(=O)c1Cc1ccccc1
 : i	0.61	/	/	99	/	-6
- O=C(CSc1nnc(SCc2ccc(Cl)cc2)s1)N/N=C/c1c[nH]c2ccccc12
 : i	0.91	-4	83	133	-0.9	-7
- O=C(O)[C@H](Cc1ccccc1)NC(=O)N1CCN(c2cccc(C(F)(F)F)c2)CC1
 : i	1.1	/	/	104	/	/
- CCN(CC)c1ccc(C=O)c(OC)c1
 : i	1	/	/	105	/	-2
- CCN1c2ccccc2-c2nc3ccccc3n2C1c1cccnc1 (centres undefined)
 : i	0.87	-19	123	106	-1.8	-12
- CC(=O)c1c(C)[nH]c(C(=O)CSc2nnc(N)s2)c1C
 : i	0.97	/	/	100	/	-8
- CCc1ccc(CCC(=O)Nc2ccc(C)cc2C)o1
 : i	1	54	104	99	-2.0	-7
- CC(=O)N(c1nc(/C=C\C(=O)O)cs1)c1ccccc1F
 : i	1	/	/	89	/	/
- CC(/C=C/c1ccc(Cl)o1)=C\C(=O)O
 : i	0.87	-92	148	/	-2.4	-6
- CCOC(=O)NCN1C(=O)C2C3C=CC(C3)C2C1=O (centres undefined)
 : i	1	29	41	100	-1.1	-2
- CC(C)(O)C(=O)NNC(=S)NCc1ccco1
 : i	1.1	/	/	102	/	0
- O=C(O)C1=C[C@H](c2csc3ccccc23)C[C@H](OCc2ccc(CO)cc2)O1
 : i	0.78	/	/	98	/	-1
- CCN(CC)C(=O)CSC(Nc1cccc(F)c1)=C(C#N)C#N
 : ?	/	/	/	87	/	/
- CCOc1ccc(/C=N/OC(C)C(=O)NCc2ccc3c(c2)OCO3)cc1 (centres undefined)
 : i	1	-62	86	106	-0.8	-1
- N#Cc1cc(-c2cccc(Cl)c2)c[nH]c1=O
 : i	0.97	-25	68	37	-0.7	0

# The results go on:
# Results follow in this order: HSV replic up	HSV replic up primary fold	INS promoter inh	INS promoter inh cell count	RGS16-Gao	GALR2 ag	PKD1 inh
- COc1ccc(C(=O)C(OC(=O)c2ccccc2Cl)c2ccccc2)cc1 (centres undefined)
 : i	1.1	/	/	97	-0.8	1
- CCOc1cc(CNCCCN2CCOCC2)cc(Br)c1OCc1ccccc1Cl
 : i	0.63	-114	92	101	/	0
- CNc1ccc(/C=C/C(=O)c2ccc(C)cc2)cc1[N+](=O)[O-]
 : i	0.8	/	/	101	0.1	-6
- [O-]/C(=C(\C(=S)NCc1ccco1)[n+]1ccccc1)c1ccccc1Br
 : i	1	14	106	86	-2.6	-5
- Nc1c(C(=O)c2cccs2)sc2nsc(SCCN3CCCCC3)c12
 : ?	/	/	/	104	/	/
- CCOC(=O)C1C2C=CC3(CN(c4ccccc4CC)C(=O)C13)O2 (centres undefined)
 : i	0.89	-30	96	/	-4.1	-3
- CCOC(=O)CSC1=Nc2ccccc2C2=NC(CC(=O)NCc3ccc4c(c3)OCO4)C(=O)N12 (centres undefined)
 : i	1	22	144	102	-0.4	1
- Cc1cccc2nc(CSc3nc4ccc([N+](=O)[O-])cc4[nH]3)c(Br)n12
 : i	1	/	/	97	-0.8	-10
- NC(=O)c1cnn(-c2cccc(Cl)c2)c1N
 : i	0.9	/	/	102	/	/
- O=Cc1ccc(-c2cccc(C(=O)O)c2)o1
 : i	0.89	/	/	101	/	2
- CN(Cc1ccccc1)c1nc2c(c(=O)[nH]c(=O)n2C)n1CCSc1nc2ccccc2[nH]1
 : i	0.98	6	81	100	0.3	-1
- Cc1c(NC(=O)C2(c3ccc(Cl)cc3)CCCC2)c(=O)n(-c2ccccc2)n1C
 : i	0.91	-21	119	107	0.4	-3
- N#Cc1nc(COc2cccc(Cl)c2)oc1N1CCCC1
 : i	0.97	/	/	101	-1.6	-1
- O=C(N/N=C/c1ccc2c(c1)OCCO2)c1ccncc1
 : i	1.1	/	/	101	/	/
- COc1cccc(CNC(=O)Cn2c(=O)oc3ccccc32)c1OC
 : i	0.91	/	/	85	-2.4	-13
- CSc1nc2ccccc2cc1/C=C(\C#N)c1cccc(C)c1
 : i	0.54	-14	208	97	-1.1	-6
- CCOC(=O)C1=C(N)N2C(=O)CSC2=C(C(=O)OC)C1
 : i	1	64	104	99	-3.0	-60
- O=C(NNc1cccc(Cl)n1)C1CC1
 : i	0.92	46	107	101	/	0
- Cc1ccc(S(=O)(=O)CCC(=O)NCCN2C(=O)S/C(=C/c3ccc(F)cc3)C2=O)cc1
 : i	0.87	0	76	62	-1.5	-11

# Record cards (already shown). Order of screens: HSV replic up | HSV replic up primary fold | INS promoter inh | INS promoter inh cell count | RGS16-Gao | GALR2 ag | PKD1 inh
# [O-]/C(=C(\C(=S)NCc1ccco1)[n+]1ccccc1)c1ccccc1Br is listed with i | 1 | 14 | 106 | 86 | -2.6 | -5
# Cc1c(NC(=O)C2(c3ccc(Cl)cc3)CCCC2)c(=O)n(-c2ccccc2)n1C is listed with i | 0.91 | -21 | 119 | 107 | 0.4 | -3
# Cc1cccc2nc(CSc3nc4ccc([N+](=O)[O-])cc4[nH]3)c(Br)n12 is listed with i | 1 | / | / | 97 | -0.8 | -10
# COc1ccc(C(=O)C(OC(=O)c2ccccc2Cl)c2ccccc2)cc1 (centres undefined) is listed with i | 1.1 | / | / | 97 | -0.8 | 1
# CCOC(=O)CSC1=Nc2ccccc2C2=NC(CC(=O)NCc3ccc4c(c3)OCO4)C(=O)N12 (centres undefined) is listed with i | 1 | 22 | 144 | 102 | -0.4 | 1
